MITF inhib: MITF inhibition; inhibition, % (concentration not given with the values); TRPM1 promoter luciferase, luminescence, 24 h; 37,000 tested, 0.28% active;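 active = most replicates at 85% or more, or half of them and the mean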;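 note: human melanocyte line stably carrying TRPM1 promoter luciferase reporter; 0% = vehicle wells and 100% = a positive control; the first replicate is given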
PD-1 reversal: reversal of PD-1 mediated T-cell inhibition. primary human CD4 T cells, PD-L1 beads, CellTiter-Glo 96 h. activation, % (test concentration not listed). 29,000 tested, under 10 active. AID 2316;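 active = replicate mean of 50% or more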;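 note: 0% = median vehicle wells and 100% = positive control; 100 nL library stock added to about 50 µL; numbers are from one replicate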
Shh pathway inh: blocks Sonic Hedgehog signaling; Shh-LIGHT2 Gli-luciferase reporter, 30 h; inhibition, % (concentration not given with the values); AID 2313; 22,000 tested, 2.1% active;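 active = replicate mean of 65% or more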;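 note: pathway switched on by Shh-conditioned medium diluted 1 in 25 in low serum; 100 nL library stock added to about 40 µL; 0% = median of neutral wells and 100% = positive control level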
YB-1 expr inh: YB-1 expression inhibition. U2OS, qRT-PCR YB-1 vs CDIP delta delta Cp, 16 h; active compounds read high; zero = DMSO, each unit about twofold. delta delta Cp (YB-1 minus CDIP) (concentration not given with the values). 30,000 tested, 0.37% active. AID 434959;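 active = delta delta Cp rounded down to an integer at or above 3, about 3 SD of DMSO wells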;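 note: higher means less YB-1 transcript or more CDIP transcript relative to DMSO; stock transfer was 100 nL into about 100 µL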
* = called active by the depositor; x = not tested or not shown. Only part of the results is shown. The share of hits here may be higher or lower than overall.

Compound	MITF inhib	PD-1 reversal	Shh pathway inh	YB-1 expr inh
COc1ccc(CN(C)C[C@@H]2Oc3ccc(NC(=O)NC(C)C)cc3C(=O)N([C@H](C)CO)C[C@@H]2C)cc1	12.6	0.9	-30.5	0.258
CCCc1cc(=O)[nH]c(SC/C=C/c2ccccc2)n1	14.9	2.2	38.8	-0.0017
COc1ccc(S(=O)(=O)N(C)C[C@H]2Oc3ccc(NS(=O)(=O)c4c(C)noc4C)cc3C(=O)N([C@H](C)CO)C[C@@H]2C)cc1	-1.8	-1.3	x	0.247
CC1CC(=O)C2C(O)(C1)CC(O)C13OC21C(=O)c1cccc(O)c1C3O (centres undefined)	0.9	-2.4	12.3	0.292
C[C@@H]1CN([C@H](C)CO)C(=O)c2cccc(NC(=O)c3cnccn3)c2O[C@@H]1CN(C)CC1CC1	-4.7	1.9	7.3	-0.875
COc1ccc(NC(=O)N(C)C[C@H]2Oc3c(NS(C)(=O)=O)cccc3C(=O)N([C@@H](C)CO)C[C@@H]2C)cc1	4.2	0.7	21.0	-0.671
C[C@H](CO)N1C[C@H](C)[C@H](CN(C)S(C)(=O)=O)Oc2ccc(NC(=O)CCCCCC(=O)Nc3ccccc3N)cc2C1=O	-3.2	2.2	x	0.21
Cc1cc(C(=O)CSc2nnc3sc4ccccc4n23)c(C)n1Cc1ccccc1	-2.9	2.7	x	x
O=C(Cn1cc(CO)c2ccccc21)Nc1ccccc1	7.7	-0.6	x	x
CC(C)(C)c1ccc(C(=O)C(C#N)=C2SCCCS2)cc1	-30.2	-0.7	x	-1.01
C[C@H]1CN([C@@H](C)CO)C(=O)c2cccc(NS(=O)(=O)c3cccs3)c2O[C@@H]1CN(C)Cc1ccc(C(=O)Nc2ccccc2N)cc1	11.4	0.5	x	-0.793
O=C(NCc1cccnc1)c1cc2nc(-c3cccs3)cc(C(F)(F)Cl)n2n1	-8.5	-4.9	x	x
Cc1cc(C(=O)Nc2cccc3c2O[C@@H](CN(C)Cc2ccc(-c4ccccc4)cc2)[C@H](C)CN([C@H](C)CO)C3=O)n(C)n1	46.7	x	31.0	0.157
Cc1ccc(S(=O)(=O)Nc2cccc3c2O[C@@H](CN(C)C)[C@@H](C)CN([C@@H](C)CO)C3=O)cc1	-5.6	1.4	-18.4	-0.125
COc1ccc(S(=O)(=O)Nc2ccc3c(c2)CC(=O)N([C@H](C)CO)C[C@@H](C)[C@H](CN(C)S(=O)(=O)c2cn(C)cn2)O3)cc1	-7.2	x	11.7	-0.0201
CCCC1=C(C(=O)OCC)C(c2cc(Br)c(O)c(OC)c2)NC(=O)N1 (centres undefined)	0.2	0.8	x	-0.8
C[C@@H]1CN([C@H](C)CO)C(=O)c2cc(NC(=O)CCCN(C)C)ccc2O[C@H]1CN(C)C	1.2	1.4	-5.8	-0.3
C[C@@H]1CN([C@@H](C)CO)C(=O)c2cccc(NS(=O)(=O)c3cn(C)cn3)c2O[C@@H]1CN(C)Cc1ccc(C(F)(F)F)cc1	-10.9	x	-13.9	-0.191
Cc1ccccc1-c1nnc(SCC(=O)Nc2ccc3c(c2)OCCO3)n1C	-2.2	0.8	x	x
O=C(NCc1ccccn1)c1ccc(NC(=O)c2ccco2)cc1	-11.0	2.4	x	x
C[C@H]1CN([C@@H](C)CO)C(=O)Cc2cc(NC(=O)Nc3ccc4c(c3)OCO4)ccc2O[C@H]1CN(C)Cc1ccc(C(F)(F)F)cc1	42.4	x	-6.0	0.177
Cc1c(OCC(=O)Nc2ccc3c(c2)OCCO3)ccc2c1oc(=O)c1ccccc12	-27.8	3.6	x	x
Cc1[nH]n2c(=O)c3c(nc2c1-c1ccccc1)CCC3	19.7	-0.7	-17.9	0.134
CC(C)NC(=O)N(C)C[C@H]1Oc2ccc(NC(=O)Nc3ccc(F)cc3)cc2C(=O)N([C@H](C)CO)C[C@H]1C	-0.6	1.6	-19.9	0.13
C[C@@H]1CN([C@@H](C)CO)C(=O)c2cccc(NS(=O)(=O)c3ccc(Cl)cc3)c2O[C@H]1CN(C)Cc1ccccc1	-10.8	2.2	-1.1	-0.0885
C[C@H]1CN([C@@H](C)CO)C(=O)Cc2cc(NS(C)(=O)=O)ccc2O[C@H]1CN(C)Cc1ccc(C(=O)O)cc1	-11.4	1.5	13.8	0.187
C[C@@H]1CN([C@@H](C)CO)C(=O)c2cccc(N(C)C)c2O[C@@H]1CN(C)S(C)(=O)=O	0.2	0.6	17.1	0.313
CC1C2CC(C(S(=O)(=O)N3CCOCC3)C2=O)C1(C)C (centres undefined)	0.4	0.2	-25.9	-0.192
COc1ccc(NC(=O)Nc2ccc3c(c2)CC(=O)N([C@H](C)CO)C[C@@H](C)[C@@H](CN(C)Cc2ccc(C(=O)O)cc2)O3)cc1	0.5	0.9	x	-0.361
C[C@H]1CN([C@@H](C)CO)C(=O)Cc2cc(NC(=O)Cc3ccccc3)ccc2O[C@H]1CN(C)Cc1ccc2c(c1)OCO2	3.4	-0.4	2.1	-0.315

(list continues)
Compound	MITF inhib	PD-1 reversal	Shh pathway inh	YB-1 expr inh
COc1ccc(S(=O)(=O)N(C)C[C@H]2Oc3ccc(NC(=O)NC(C)C)cc3CC(=O)N([C@H](C)CO)C[C@H]2C)cc1	-9.2	0.3	-19.4	-0.0623
COC(=O)C1=C(C)N(Cc2ccccc2)C(=O)NC1c1ccccc1F (centres undefined)	12.3	-0.4	x	-1.11
Cc1nnsc1C(=O)NC(=O)Nc1cc(Cl)cc(Cl)c1	8.9	0.8	-3.8	-0.0474
C[C@@H]1CN([C@H](C)CO)C(=O)c2cccc(NS(=O)(=O)c3ccc(Cl)cc3)c2O[C@@H]1CN(C)Cc1ccccc1	-17.1	-3.8	-7.6	-1.14
COC(=O)c1cnc(Oc2c(Cl)cc(N)cc2Cl)cc1C(F)(F)F	6.5	-0.4	5.4	-0.438
C[C@H]1CN([C@@H](C)CO)C(=O)Cc2cc(NS(=O)(=O)c3cccs3)ccc2O[C@H]1CN(C)C(=O)Nc1ccccc1	-14.5	0.6	x	0.173
C[C@@H]1CN([C@H](C)CO)C(=O)c2cc(NC(=O)CCC(F)(F)F)ccc2O[C@H]1CN(C)C(=O)Nc1ccc(C(F)(F)F)cc1	-2.8	-0.2	x	-0.171
C[C@@H]1CN([C@@H](C)CO)C(=O)c2cccc(NC(=O)Nc3ccc(C(F)(F)F)cc3)c2O[C@@H]1CN(C)Cc1ccncc1	-9.8	0.9	-9.8	-3.55
C[C@H]1CN([C@@H](C)CO)C(=O)c2cc(NC(=O)CCCCCC(=O)Nc3ccccc3N)ccc2O[C@H]1CN(C)Cc1ccc(Cl)c(Cl)c1	36.9	-1.3	x	x
C[C@@H]1CN([C@H](C)CO)C(=O)c2cccc(NC(=O)c3nc4ccccc4s3)c2O[C@@H]1CN(C)Cc1ccccc1	-22.4	x	20.7	0.111
Cc1ccccc1C(=O)Nc1sc2c(c1C(=O)NCc1ccco1)CCCC2	-18.8	0.1	x	x
O=C(CCc1nc(-c2ccccc2F)no1)Nc1ccccc1Cl	-25.6	2.4	x	x
Cc1cc(NC(=O)C2CC(c3cccc(Br)c3)=NO2)n(-c2ccccc2)n1 (centres undefined)	13.2	1.2	x	x
Cc1cc([N+](=O)[O-])nn1Cc1ccc(C(=O)Nc2ccc(CC#N)cc2)cc1	1.4	2.2	x	x
C[C@@H]1CN([C@H](C)CO)C(=O)c2cc(NS(C)(=O)=O)ccc2O[C@H]1CN(C)CC1CC1	-2.3	1.5	-6.6	0.343
COc1ccc(CCNC(=O)C(=O)Nc2ccc(C(C)(C)C)cc2)cc1OC	-0.7	0.8	x	x
Cc1noc(C)c1NC(=O)N(C)C[C@H]1Oc2ccc(NS(=O)(=O)c3ccccc3)cc2CC(=O)N([C@@H](C)CO)C[C@@H]1C	-26.9	x	-4.2	-0.0893
CCNc1nc(F)cc(=O)[nH]1	-2.4	-1.3	x	-0.199
COc1ccc2[nH]c(C(=O)O)c(CCC(=O)O)c2c1	-0.1	1.5	x	x
C[C@H]1CN([C@@H](C)CO)C(=O)c2cc(NC(=O)Cc3ccccc3)ccc2O[C@H]1CN(C)Cc1ccncc1	3.6	3.1	x	0.0663
Oc1ccccc1CNc1ccc2c(c1)ncn2C1CCCCC1	-4.5	1.2	x	x
Cc1nc2ccc(F)cc2cc1C(=O)NCc1ccco1	-18.8	2.7	x	x
COc1ccc(-c2cc(=O)c3c(O)cc(O[C@@H]4O[C@H](C(=O)O)[C@@H](O)[C@H](O)[C@H]4O)cc3o2)cc1	-13.8	0.8	0.2	0.436
C[C@H]1CN([C@@H](C)CO)C(=O)c2cccc(NS(C)(=O)=O)c2O[C@H]1CN(C)Cc1ccncc1	3.2	1.3	2.1	0.115
Cc1ccc(S(=O)(=O)Nc2cccc3c2O[C@@H](CN(C)Cc2ccc4c(c2)OCO4)[C@H](C)CN([C@@H](C)CO)C3=O)cc1	-15.6	2.5	-0.1	1.51
Cc1ccc(S(=O)(=O)N(C)C[C@H]2Oc3ccc(NC(=O)NC4CCCCC4)cc3C(=O)N([C@H](C)CO)C[C@H]2C)cc1	-12.5	x	-24.2	0.151
Cc1noc(C)c1NC(=O)N(C)C[C@H]1Oc2ccc(NC(=O)NC3CCCCC3)cc2CC(=O)N([C@@H](C)CO)C[C@H]1C	-3.3	x	1.8	-0.301
COc1ccc(S(=O)(=O)N(C)C[C@@H]2Oc3ccc(NC(=O)Nc4cccc5ccccc45)cc3C(=O)N([C@@H](C)CO)C[C@H]2C)cc1	-6.5	-0.6	-5.3	0.37
COc1ccccc1NC(=O)CSc1nc(C)cc(C(F)(F)F)n1	-21.8	0.1	x	x
COc1ccc(CCC(=O)c2ccc(OC)cc2O)cc1	-49.4	-1.2	25.2	-0.281

Reprinted from the part before: 3 compounds, then new ones.
Compound	MITF inhib	PD-1 reversal	Shh pathway inh	YB-1 expr inh
COc1ccc(S(=O)(=O)N(C)C[C@@H]2Oc3ccc(NC(=O)Nc4cccc5ccccc45)cc3C(=O)N([C@@H](C)CO)C[C@H]2C)cc1	-6.5	-0.6	-5.3	0.37
COc1ccccc1NC(=O)CSc1nc(C)cc(C(F)(F)F)n1	-21.8	0.1	x	x
COc1ccc(CCC(=O)c2ccc(OC)cc2O)cc1	-49.4	-1.2	25.2	-0.281
C[C@@H]1CN([C@@H](C)CO)C(=O)Cc2cc(NS(=O)(=O)c3cccs3)ccc2O[C@@H]1CN(C)CC1CCCCC1	-4.5	0.3	10.2	-0.121
CCc1cc(OCCSc2nc(C)cc(=O)[nH]2)ccc1Cl	-22.0	-1.2	x	x
CC(C)=CCC1Cc2c(cc(O)c(C(=O)C(C)C)c2O)OC1(C)C (centres undefined)	4.4	-2.9	-37.2	0.816
COc1cc(Br)cc(CNc2cc(C)on2)c1O	8.5	-1.3	3.0	-0.277
CS(=O)(=O)N(CC(=O)Nc1ccccc1Br)c1ccccc1F	-4.0	0.0	x	x
C[C@H]1CN([C@@H](C)CO)C(=O)Cc2cc(NS(C)(=O)=O)ccc2O[C@@H]1CN(C)C(=O)Nc1ccc2c(c1)OCO2	-12.5	0.8	-41.2	0.391
C[C@H]1CN([C@@H](C)CO)C(=O)Cc2cc(NC(=O)NC3CCCCC3)ccc2O[C@@H]1CN(C)S(=O)(=O)c1ccccc1	-10.3	1.0	-18.8	-0.0558
Cc1noc(C)c1NC(=O)Nc1cccc2c1O[C@H](CN(C)C(=O)NC(C)C)[C@@H](C)CN([C@H](C)CO)C2=O	-8.5	2.6	-24.8	0.428
CCc1ccc(CCC(=O)Nc2ccc(Cl)cc2Cl)o1	-21.6	-3.1	x	x
CC(C)NC(=O)Nc1ccc2c(c1)CC(=O)N([C@@H](C)CO)C[C@H](C)[C@@H](CN(C)Cc1ccc(Oc3ccccc3)cc1)O2	15.6	-2.2	1.9	0.186
Cc1noc(C)c1NC(=O)N(C)C[C@@H]1Oc2c(NS(C)(=O)=O)cccc2C(=O)N([C@H](C)CO)C[C@@H]1C	4.9	x	-14.1	0.17
Cc1ccc(S(=O)(=O)Nc2cccc3c2O[C@@H](CN(C)S(=O)(=O)c2ccc(C)cc2)[C@H](C)CN([C@@H](C)CO)C3=O)cc1	-4.1	1.1	-18.7	-0.374
COc1ccc(S(=O)(=O)N(C)C[C@@H]2Oc3ccc(NC(=O)Cn4cnnn4)cc3C(=O)N([C@@H](C)CO)C[C@H]2C)cc1	-2.1	0.2	-0.8	0.359
